# Screening data deposited in PubChem BioAssay by several laboratories.
# WNV protease inh: inhibitors of West Nile virus NS2B-NS3 protease; 65,000 tested, 0.18% active; WNV NS2B-NS3 protease, fluorogenic substrate Ex360/Em465; hits give low values; AID 577; z-score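 (tested at a level between 10 and 100 µM)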;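 active = z-score at -3 or under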;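 note: score is relative to mean and spread of the compound wells of a plate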
# Target sequence (P06935 1371-1501 limits assumed): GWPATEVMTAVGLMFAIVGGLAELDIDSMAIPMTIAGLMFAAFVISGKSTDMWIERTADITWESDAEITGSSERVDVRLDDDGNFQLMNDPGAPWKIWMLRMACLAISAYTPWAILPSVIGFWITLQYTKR
# Target sequence (P06935 1502-1679 limits assumed): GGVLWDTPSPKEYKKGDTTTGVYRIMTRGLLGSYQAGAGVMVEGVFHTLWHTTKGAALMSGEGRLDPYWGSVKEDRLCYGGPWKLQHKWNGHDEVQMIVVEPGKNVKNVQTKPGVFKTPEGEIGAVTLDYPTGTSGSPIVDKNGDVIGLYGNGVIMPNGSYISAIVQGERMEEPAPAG
# MT1-MMP promoter: MT1-MMP gene expression reporter suppression – cell-based, luciferase reporter, luminescence (AID 618). MT1-MMP promoter luciferase reporter cells, luminescence. calls from a first round at 10 µM; hits with a dose series show EC50 in µM. 87,000 tested, 0.62% active;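 active = over half of the reporter light lost at 10 µM or EC50 under 50 µM; inactive = the rest and hits that failed the dose series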;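 note: actives suppress MT1-MMP promoter-driven transcription so potencies describe inhibitors; HT1080 fibrosarcoma cells; overnight exposure; toxic or luciferase-blocking compounds were not removed from the actives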
# Hsc70 ATP site: Hsc70 inhibitors, probe displacement, primary screen, biochemical, fluorescence polarization (AID 568). Hsc70 fluorescence polarization, probe displacement; higher % means a stronger effect; strong numbers were not always called active. displacement, % at 20 µM, or IC50 in µM where a hit was titrated. 83,000 tested, under 10 active;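 active = displacement above 50% without optical interference and an IC50 on retest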;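 note: ATPase domain with a fluorescein-tagged ATP probe; 0% = vehicle and 100% = excess ADP; read after one hour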
# * marks the source's active call; other numbers are inactive results; i = inactive; / = not tested or not shown.
# The line under a structure holds: WNV protease inh, MT1-MMP promoter, Hsc70 ATP site
COc1nc(N2CCCCCC2)nc(N2CCCCCC2)n1
→ 1.1, i, 8.4%
Cc1ccc2oc(=O)c3cnn(CC(=O)NCCN4CCOCC4)c3c2c1
→ 0.89, i, 2.8%
O=S(=O)(c1ccc(-c2csc(-c3cccnc3)n2)cc1)N1CCCCC1
→ -0.36, i, -0.5%
Cc1nc2ncnn2c(C)c1CCC(=O)Nc1csc(N)n1
→ -0.57, i, -2.6%
CCOC(=O)c1c(C)c(C(=O)NC(C)COC)c(C)n1C (stereo unspecified)
→ 0.1, i, -1.2%
COc1ccc(-c2c(=O)n(OCc3ccccn3)c3ccccc3[n+]2[O-])cc1OC
→ 1.1, i, 4.1%
CCOc1ccc(C2CC(=O)NC(SC)=C2C#N)cc1 (stereo unspecified)
→ 0.72, i, -2.9%
O=S(=O)(Cc1cccc(F)c1)c1c[nH]c2ccccc12
→ -0.53, i, 1.5%
CCOC(=O)c1ccc(NC(=O)Nc2ccc(S(N)(=O)=O)cc2)cc1
→ -0.43, i, 8.0%
CCSc1nc(C)c(C(C)=O)cc1C#N
→ /, i, 0.3%
COc1ccc(/C(N)=N/OC(=O)c2ccc(C)c([N+](=O)[O-])c2)cc1OC
→ /, i, 0.3%
O=C(Oc1cccc(NC(=O)c2ccco2)c1)c1ccc(Br)c(S(=O)(=O)N2CCCCC2)c1
→ /, i, 3.1%
COc1ccc(-n2nc3c(c2NC(=O)c2c(-c4ccccc4Cl)noc2C)CS(=O)(=O)C3)cc1
→ -0.24, i, 2.1%
COc1nn(C(C)C(=O)N2N=C(C(F)F)CC2(O)C(F)F)cc1[N+](=O)[O-] (stereo unspecified)
→ /, i, 0.3%
CCCCOC(=O)Nc1nnc(CCOCC)s1
→ 0.67, i, 8.5%
O=C(Cn1nc(C(=O)O)c2ccccc2c1=O)NCC1CCCO1 (stereo unspecified)
→ 0.41, i, 1.1%
Clc1ccc(/C=N/c2c(-c3ccco3)nc3ccccn23)cc1
→ /, i, 3.7%
Cc1ccc2[nH]c(=O)c(CN(CCCN3CCOCC3)Cc3nnnn3C3CCCC3)cc2c1
→ 1.3, i, 5.1%
Cc1noc(/C=C/c2ccco2)c1S(=O)(=O)N1CCC(C(=O)N(C)Cc2ccccc2)CC1
→ -0.05, i, -30%
Cc1cc2c(c(=O)n1CC1CCCO1)C(c1ccc3c(c1)OCO3)C(C#N)=C(N)O2 (stereo unspecified)
→ -2, i, -2.0%
CC1CCN(S(=O)(=O)c2ccc(C(=O)NCc3ccc4c(c3)OCO4)cc2)CC1
→ /, i, -4.5%
Clc1ccc(OCCCn2cncn2)cc1Cl
→ 0.93, i, -0.2%
O=C(CC1NC(=O)NC1=O)NC1(C(=O)NC2CCCCC2)CCCCC1 (stereo unspecified)
→ 0.34, i, 1.0%
CC(N=Cc1ccccc1O)c1ccccc1 (stereo unspecified)
→ /, i, 2.2%
Cc1ccccc1-n1nc2c(c1NC(=O)c1ccc(S(=O)(=O)N(C)C)cc1)CSC2
→ 0.26, i, -3.7%
O=S(=O)(c1ccccc1)c1nc(Nc2ccccc2N2CCOCC2)sc1Cl
→ 0.03, i, 3.2%
O=S(=O)(NC1CCCC1)c1ccc(S(=O)(=O)N2CCN(c3ccccc3)CC2)cc1
→ /, i, 1.2%
O=C(NCC(=O)N(CCc1ccccc1)C(C(=O)NC1CCCCC1)c1ccncc1)c1ccco1 (stereo unspecified)
→ 0.16, i, -2.5%
Cc1c(NC2=NC3(CCCCC3)Cc3ccccc32)c(=O)n(-c2ccccc2)n1C
→ -0.25, i, -3.1%
COc1ccc(NC(=O)CN(c2ccccc2)S(=O)(=O)N(C)C)cc1OC
→ -0.81, i, -3.6%
CCOC(=O)C(C)Sc1nc(-c2ccco2)cc(C(F)(F)F)c1C#N (stereo unspecified)
→ 0.29, i, -17%
Cc1ccc(C(=O)CSc2nnc(-c3cccs3)n2C)o1
→ 0.18, i, -2.2%
CC(O)CNc1nc2c(c(=O)n(C)c(=O)n2C)n1Cc1cccc(C(F)(F)F)c1 (stereo unspecified)
→ -2, i, -10%
COc1ccc(NC(=O)COn2nnc3ccc(Cl)cc32)cc1OC
→ -0.49, i, -2.3%
CCC(C)C(=O)Nc1cc(C(=O)OC)cc(C(=O)OC)c1 (stereo unspecified)
→ -0.51, i, -2.3%
CCOC(=O)N1CCN(C(=O)CSCC(=O)Nc2nc(-c3ccc4c(c3)OCO4)cs2)CC1
→ -1.4, i, 0.1%
CC(=O)N1CCN(c2ccc(NCc3ccccc3)cc2)CC1
→ -0.4, i, -1.6%
CN(C(=O)c1ccc(Cl)c(S(=O)(=O)N2CCOCC2)c1)c1ccccc1C(=O)O
→ -0.03, i, -9.5%
CCOC(=O)N1CCN(C(=O)c2ccc3c(=O)n4c(nc3c2)CCCCC4)CC1
→ 1.3, i, -4.4%
COc1ccc(-c2nc(C)c(C(C)=O)n2O)cc1
→ /, i, 3.1%
CC1CCN(S(=O)(=O)c2ccc3c(c2)oc(=O)n3CC(=O)NCc2ccc3c(c2)OCO3)CC1
→ 0.71, i, 0.0%
O=C(Oc1ccc(F)cc1C(=O)/C=C/c1cccs1)c1cccc([N+](=O)[O-])c1
→ /, i, 1.7%
Cc1ccc(S(=O)(=O)N2CCOCC2)cc1C(=O)Nc1ccc(-c2cn3ccsc3n2)cc1
→ -0.71, i, -1.2%
Cc1cc(S(=O)(=O)N2CCN(c3ccccc3C)CC2)ccc1F
→ -0.34, i, -3.7%
CCC(C)(C)n1nnnc1C(c1cccs1)N1CCN(Cc2ccccc2)CC1 (stereo unspecified)
→ 0.6, i, 1.0%
Cc1ccc(-n2cc(C(C)(C)C)[nH]c2=S)cc1
→ 0.03, i, 7.8%
CCOC(=O)Cn1c(N2CCOCC2)nc2c1c(=O)[nH]c(=O)n2C
→ -0.71, i, 2.4%
O=C1c2ccccc2-c2ccc(C(=O)N3CCOCC3)cc21
→ 0.1, i, 5.0%
C=CCn1c(SC(C)C(=O)NCc2ccc3c(c2)OCO3)nnc1C1CCCCC1 (stereo unspecified)
→ -0.07, i, 1.2%
CS(=O)(=O)N(CC(=O)NCCc1ccccc1)C1CCCCC1
→ /, i, -1.6%
Cc1cc(-c2ccccc2)n2ncc(C#N)c2n1
→ -0.28, i, 1.6%
O=C(CSc1nc2ccccc2n1-c1ccccc1)NCC1CCCO1 (stereo unspecified)
→ -1.5, i, 0.9%
CCOC(=O)c1c(NC(=O)c2nc3n(n2)C(C(F)F)CC(C)N3)sc2c1CCCC2 (stereo unspecified)
→ -0.47, i, 2.0%
Cc1ccc(C(=O)OCC(=O)Nc2sc3c(c2C#N)CCCC3)cc1NC(=O)c1ccco1
→ /, i, -3.3%
Fc1ccc(-c2nnc(SCc3ncc(-c4ccccc4)o3)n2CC2CCCO2)cc1 (stereo unspecified)
→ 0.18, i, 2.0%
Cc1cc(C)n(-c2nc(NC(C)C)nc(NC(C)C)n2)n1
→ -0.65, i, 3.1%
CC(=O)c1cccc(NC(=O)c2ccc(N(Cc3ccccc3C)S(C)(=O)=O)cc2)c1
→ /, i, 2.4%
CCn1c(SCC(=O)N2CCOCC2)nnc1-c1cccs1
→ 0.09, i, -1.1%
Cc1ccc(C(=O)OCC(=O)NC(=O)c2cccn2C)cc1
→ /, i, -3.4%
O=C1N(Cc2ccccc2)CCCC12CCCN(Cc1ccccc1)C2=O
→ 2.5, i, -10%

# More compounds.
# The line under a structure holds: WNV protease inh, MT1-MMP promoter, Hsc70 ATP site
C=CCn1c(SC2CCOC2=O)nc2sc(CC)cc2c1=O (stereo unspecified)
→ /, i, -1.2%
CCCSc1nc(SCC(=O)NCc2ccccc2)c2c3c(sc2n1)COC(C)(C)C3
→ /, i, -2.1%
N#CCCN1CCN(S(=O)(=O)c2ccc(S(=O)(=O)N3CCCC3)cc2)CC1
→ 1.2, i, 1.2%
CCOC(=O)CSc1nc2c(c(=O)[nH]c(=O)n2C)n1CCc1ccccc1
→ 1.3, i, -4.5%
COCCn1cnc2c1c(=O)n(CC(=O)Nc1cc(C)on1)c(=O)n2Cc1ccccc1
→ /, i, -15%
CCOC(=O)C(NC(=O)c1ccc(OC)cc1)(N1CCOCC1)C(F)(F)F (stereo unspecified)
→ -0.53, i, 3.2%
CN1CCN(c2ncnc3c2[nH]c2ccc(F)cc23)CC1
→ -0.4, i, -3.5%
CC(C)OC(=O)C1C(=O)CC(C)(O)C(C(=O)OC(C)C)C1c1ccc(F)cc1 (stereo unspecified)
→ /, i, 1.9%
COc1ccccc1-n1c(=O)c2c3c(sc2n2c(SC(C)C)nnc12)CCC3
→ -0.51, i, 0.8%
CCN(CCCNC(=O)c1c(C)cc(=O)oc1C)c1cccc(C)c1
→ -0.12, i, -2.2%
Cc1cc(=O)oc2cc(OCC(=O)N3CCc4ccccc4C3)ccc12
→ 1.4, i, -4.2%
CCC(NC(=O)Nc1ccc(O)cc1)(C(F)(F)F)C(F)(F)F
→ 0.17, i, -0.3%
CCCn1nnc(NC(=O)c2ccco2)n1
→ -0.56, i, 9.0%
Cc1cc(C)n(CCSCC(=O)O)n1
→ /, i, -3.8%
COc1ccc(C2=NCC(CSc3nnc(-c4ccc5c(c4)OCO5)o3)S2)cc1 (stereo unspecified)
→ -0.07, i, -2.9%
Cc1noc(C)c1C(=O)OCC(=O)Nc1ccccc1C(=O)NC(C)c1ccccc1 (stereo unspecified)
→ -0.49, i, 5.0%
O=C(c1ccc(S(=O)(=O)N2CCOCC2)cc1)N1CCN(c2cccc(Cl)c2)CC1
→ -0.56, i, 0.2%
CCOc1ccc(NC(=O)CSCc2cnn(-c3ccccc3)c2-n2cccc2)cc1
→ /, i, 0.8%
N#Cc1nc(COc2ccccc2F)oc1N1CCCCCC1
→ -0.05, i, -4.1%
CCCc1nc(NCc2ccc3c(c2)OCO3)c2nnn(Cc3ccccc3Cl)c2n1
→ /, i, -0.5%
O=C(CSc1nnc(Cn2c(=O)sc3ccccc32)n1-c1ccccc1)N1CCOCC1
→ -1.7, i, -6.8%
CCOC(=O)CSc1nnnn1-c1cc(OC)c(Cl)cc1OC
→ -0.99, i, -0.7%
COc1cc(C2C(C(=O)c3ccc(C)o3)=C(O)C(=O)N2Cc2cccnc2)ccc1O (stereo unspecified)
→ -1.3, i, -2.4%
COCCCNC(=O)Cn1ncc2c(=O)oc3ccccc3c21
→ -0.61, i, -1.0%
CC(C)(C)NC(=O)C1N(c2cccnc2)C(=O)C2C(C(=O)Nc3ccccc3)C3(C)C=CC21O3 (stereo unspecified)
→ -0.45, i, -8.8%
COc1cc(CN2CCN(C(=O)CC(C)C)CC2)cc(OC)c1O
→ -0.42, i, -1.7%
O=S(=O)(c1ccc(OCC(O)CN2CCN(c3ccccc3Cl)CC2)cc1)N1CCOCC1 (stereo unspecified)
→ -0.41, i, 0.8%
CN(C)S(=O)(=O)c1cccc(C(=O)NCc2ccco2)c1
→ 0.07, i, 6.9%
CNC(=O)C1CC(=O)N(CCc2ccc(OC)cc2)C(=Nc2ccc(OC)cc2)S1 (stereo unspecified)
→ /, i, -0.4%
CC1CCCN(S(=O)(=O)c2ccc(S(=O)(=O)N3CCCN(Cc4ccccc4)C3)cc2)C1 (stereo unspecified)
→ -1.1, i, 1.0%

# As entered above:
# For WNV protease inh, CC(C)(C)NC(=O)C1N(c2cccnc2)C(=O)C2C(C(=O)Nc3ccccc3)C3(C)C=CC21O3 (stereo unspecified) reads -0.45
# For WNV protease inh, O=C(c1ccc(S(=O)(=O)N2CCOCC2)cc1)N1CCN(c2cccc(Cl)c2)CC1 reads -0.56

# Next part
# The line under a structure holds: WNV protease inh, MT1-MMP promoter, Hsc70 ATP site
COCCn1nnnc1C(C(C)C)N(Cc1cccnc1)Cc1cc2cc(OC)ccc2[nH]c1=O (stereo unspecified)
→ 0.17, i, -6.3%
COc1cccc(-n2c(Cc3cc(=O)[nH]c(=O)[nH]3)nnc2SCc2cccnc2)c1
→ 1.6, i, 5.1%
COc1ccc(NC(=O)Cn2nc(C(F)(F)F)c3c2CCCC3)c(OC)c1
→ -0.82, i, -2.8%
NCCCCCc1nnc(SCC(=O)Nc2cccc(Cl)c2)o1
→ 0.41, i, -5.4%
CCCSC1=N/C(=C\C=C\c2ccco2)C(=O)S1
→ -1.4, i, -26%
CCc1ccc(Oc2cc(C)nc(N)n2)cc1
→ /, i, -1.8%
Cc1ccc(Cl)cc1NC1=NC(=S)N(C(C)C)C12CCCCC2
→ /, i, -4.7%
CCOc1ccc(NC(=O)Nc2ccc3nccnc3c2)cc1
→ -0.24, i, 2.2%
COc1ccc(N=C2SCC(=O)N2c2ccc(OC)cc2)cc1
→ -0.29, i, -6.2%
CCn1c(=O)cc(SCC(=O)NCc2cccnc2)c2ccccc21
→ -0.1, i, -11%
Cc1ccc(-c2nnc(SCC(=O)NCC3CCCO3)n2C)cc1 (stereo unspecified)
→ /, i, -0.3%

# 5 compounds from above, reduced to Hsc70 ATP site and WNV protease inh.
structure	Hsc70 ATP site	WNV protease inh
NCCCCCc1nnc(SCC(=O)Nc2cccc(Cl)c2)o1	-5.4%	0.41
CCCSC1=N/C(=C\C=C\c2ccco2)C(=O)S1	-26%	-1.4
CCc1ccc(Oc2cc(C)nc(N)n2)cc1	-1.8%	/
Cc1ccc(Cl)cc1NC1=NC(=S)N(C(C)C)C12CCCCC2	-4.7%	/
CCOc1ccc(NC(=O)Nc2ccc3nccnc3c2)cc1	2.2%	-0.24
